HPGD inh – qHTS Assay for Inhibitors of HPGD (15-Hydroxyprostaglandin Dehydrogenase). 15-hydroxyprostaglandin dehydrogenase [NAD(+)] (Homo sapiens), P15428. purified HPGD, NADH fluorescence kinetic, PGE2 substrate. Potency, µM, without a hit: top-dose activity change, negative = inhibition, usual class: inhibitors. 4.3% of 150,000 active. AID 894, 2007; active = well fitted inhibition curve with a large enough effect (not every such curve was filed as active); inconclusive = small, poorly fitted or top-dose-only effect, or another doubt; inactive = no such curve, though single readings can be large or run the other way;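 also: top concentration of the series not given in the record; plate controls included wells without enzyme; inactives centre near -10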
Target sequence (P15428 whole entry, looked up): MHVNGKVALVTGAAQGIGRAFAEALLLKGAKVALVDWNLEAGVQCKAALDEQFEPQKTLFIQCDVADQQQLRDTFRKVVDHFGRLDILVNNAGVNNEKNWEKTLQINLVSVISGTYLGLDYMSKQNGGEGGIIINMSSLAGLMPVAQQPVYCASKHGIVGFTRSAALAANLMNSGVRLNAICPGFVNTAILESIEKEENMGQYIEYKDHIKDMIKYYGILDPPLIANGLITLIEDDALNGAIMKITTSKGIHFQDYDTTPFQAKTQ
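NADH formation kinetics: reaction with 30 uM PGE2 and 1 mM NAD+ (final), 20 nM enzyme, Tris-HCl pH 8 with Tween 20, after 15 min compound preincubation at room temperature. Fluorescence change, last versus first of five reads.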
Starred values were filed as active, the others as inactive; & = joins results of further samples; ! = repeats disagree. % is scaled to controls: 0 for no effect and ±100 for the full control effect; potency is read from the fitted curve at half-maximal effect. Only part of the results is shown. The share of hits here may be higher or lower than overall.

Results for COC(=O)CC1SC(=O)NC1=Nc1ccc(C)cc1 (stereo unspecified) ?
HPGD inh: -3%

What do the screens show for `Cc1onc(-c2ccccc2)c1C(=O)NCc1cccs1`?
HPGD inh: -5%

Results for CCOC(=O)Nc1nc(-c2ccccc2)c(C(=O)c2ccc(Cl)cc2)s1 ?
HPGD inh: -20%

How did CCCN1/C(=C2/SC(=S)N(CC)C2=O)C=Cc2ccccc21 do in these assays?
HPGD inh: -13%

How did O=P(O)(CCc1ccccc1)C(O)c1ccccc1 (stereo unspecified) do in these assays?
HPGD inh: -1%

What do the screens show for `NC(=O)c1sc2nccc(Nc3ccccc3)c2c1N`?
HPGD inh: inconclusive

Results for COC(=O)c1cc2n3ccccc3c(C)c(-c3ccccc3)c-2c1C(=O)OC ?
HPGD inh: -6%

What do the screens show for `CC1=C(C#N)C(c2cccnc2)C2=C(CC(C)(C)CC2=O)N1` (stereo unspecified)?
HPGD inh: inconclusive

What do the screens show for `CCS(=O)(=O)Nc1ccc(-c2ccc(NS(=O)(=O)CC)c(OC)c2)cc1OC`?
HPGD inh: inconclusive

What do the screens show for `Cc1cc(C)c(OCC(=O)Nc2cccc(O)c2)cc1C`?
HPGD inh: -11%

Next part; it opens with the two that closed the last part.
What do the screens show for `CCS(=O)(=O)Nc1ccc(-c2ccc(NS(=O)(=O)CC)c(OC)c2)cc1OC`?
HPGD inh: inconclusive

What do the screens show for `Cc1cc(C)c(OCC(=O)Nc2cccc(O)c2)cc1C`?
HPGD inh: -11%

How did CCCn1c(NCc2ccc(N(C)C)cc2)nc2ccccc21 do in these assays?
HPGD inh: -8%

What do the screens show for `O=C(NNC(=O)c1ccc2ccccc2c1O)c1ccccc1Cl`?
HPGD inh: -14%

How did Nc1cc(N)nc(SCC(=O)N2CCN(C(=O)c3ccco3)CC2)n1 do in these assays?
HPGD inh: -3%

How did CC[C@H](C)C(=O)O[C@H]1C[C@@H](C)C=C2C=C[C@H](C)[C@H](CC[C@@H]3C[C@@H](O)CC(=O)O3)[C@H]21 do in these assays?
HPGD inh: -8%&-9%

Results for Cc1cc(=O)[nH]c(N/N=C/C2=C(N3CCOCC3)C(=C\c3ccc(Cl)cc3)/CC2)n1 ?
HPGD inh: -20%

Results for O=C(OC(c1ccccc1)c1nccc2ccccc12)c1cccc([N+](=O)[O-])c1 (stereo unspecified) ?
HPGD inh: -4%

What do the screens show for `COc1cc(NC(=O)c2ccc3c(c2)OCO3)c2ncccc2c1`?
HPGD inh: inconclusive

What do the screens show for `COc1ccccc1NC(=O)c1cc2ccccc2o/c1=N\O`?
HPGD inh: 22µM*

What do the screens show for `CC(=O)c1ccc(N2CCN(C(=O)c3ccc(NC(=O)C4CCCO4)cc3)CC2)cc1` (stereo unspecified)?
HPGD inh: 25µM*

What do the screens show for `COc1ccc(NS(=O)(=O)c2cc(NC(=O)/C=C/c3cc(OC)c(OC)c(OC)c3)ccc2N2CCCCC2)cc1`?
HPGD inh: inconclusive

What do the screens show for `COc1cccc(NC(=O)N2CCC(C(N)=O)(N3CCCCC3)CC2)c1`?
HPGD inh: -8%

What do the screens show for `OCCNC1=NCCN1`?
HPGD inh: -13%

Results for N=C1C(=O)OCC1c1cc(Cl)ccc1NC(=O)Nc1ccccc1 (stereo unspecified) ?
HPGD inh: 1%

How did c1ccc(COCCN2CCN(CCOCc3ccccc3)CC2)cc1 do in these assays?
HPGD inh: -16%

How did COc1cc(NC(=O)c2ccco2)c(OC)cc1NC(=O)CSc1nnc(-c2cccs2)n1C do in these assays?
HPGD inh: -6%

What do the screens show for `CCOc1ccccc1OCCCC(=O)Nc1ccc(OC)nc1`?
HPGD inh: -9%

What do the screens show for `O=C(CSc1nnc(-c2ccncc2)n1CC1CCCO1)Nc1nccs1` (stereo unspecified)?
HPGD inh: -12%

Results for COCc1nc(-c2cc(Br)ccc2OC)no1 ?
HPGD inh: -21%

What do the screens show for `CCNc1nc(NCc2ccccc2)nc(SCC(=O)Nc2ccccc2)n1`?
HPGD inh: -10%

Results for COc1ccc(C2=C(SC)CC2=NC(C)(C)C)cc1 ?
HPGD inh: -6%

How did CC1CN(C(=O)c2ccc(N3CCCCC3)c([N+](=O)[O-])c2)CC(C)O1 (stereo unspecified) do in these assays?
HPGD inh: -8%

Results for CCc1cccc(CC)c1NC(=S)NC(C)c1ccccc1 (stereo unspecified) ?
HPGD inh: -6%

How did COc1ccc2nc(N=Nc3ccc(N(C)C)cc3)sc2c1 do in these assays?
HPGD inh: -2%

Results for Cc1ccc(-n2nnnc2SC(C)C(=O)NCC(=O)Nc2ccc(F)c(F)c2F)c(C)c1 (stereo unspecified) ?
HPGD inh: -12%

Results for Cc1cccc2cc(-c3ccccc3)c(-c3ccccc3)c[n+]12 ?
HPGD inh: -8%

Results for CC1(C)C(=O)OC(C(=O)c2ccc(C(C)(C)C)cc2)C(C)(C)C1=O (stereo unspecified) ?
HPGD inh: -7%

What do the screens show for `CCOc1ccc(C2=Nn3c(nnc3-c3ccccc3OC)SC2)cc1`?
HPGD inh: -11%

How did CCS(=O)(=O)C(=C(Nc1ccc(OC)cc1)Nc1ccc(OC)cc1)S(=O)(=O)CC do in these assays?
HPGD inh: -6%

What do the screens show for `COC(=O)c1cn(CCOc2ccccc2)c2ccccc12`?
HPGD inh: -4%

How did COc1ccc(CNC(=O)CS(=O)Cc2nc(-c3ccccc3C)oc2C)cc1 (stereo unspecified) do in these assays?
HPGD inh: inconclusive

Results for CCOC(=O)C1=C(O)/C(=C/c2cc(OC)c(OC)c(OC)c2)N=C1C ?
HPGD inh: -13%

How did C#CCOCCOCCOCCNc1nc(N2CCN(C(=O)Cn3cc(CCCCN)nn3)CC2)nc(N2CCN(C(=O)Cn3cc(CCCCN)nn3)CC2)n1 do in these assays?
HPGD inh: 1%

How did Cc1cc(NC(=O)c2noc3c2CCCC3)no1 do in these assays?
HPGD inh: -7%

Results for COc1ccc(S(=O)(=O)N2CCN(C(=O)c3c(-c4ccccc4)noc3C)CC2)cc1 ?
HPGD inh: -6%

Results for O=C(CCSCc1cccc(Cl)c1)NCCC1=CCCCC1 ?
HPGD inh: inconclusive

What do the screens show for `Oc1c(Cl)cc(Cl)c(Cl)c1Cc1c(O)c(Cl)cc(Cl)c1Cl`?
HPGD inh: 35µM*!

What do the screens show for `CCOC(=O)c1c(/N=C/C2=C(O)CC(C)(C)CC2=O)sc(C)c1C`?
HPGD inh: -5%

Results for C/C=C1/C2C=C(C)CC1(N)c1ccc(=O)[nH]c1C2 (stereo unspecified) ?
HPGD inh: 1%

How did CN(C)c1ccc(NC(=O)CSc2nc3c(c(=O)[nH]2)CCCC3)cc1 do in these assays?
HPGD inh: -12%

How did COc1ccc2cc(CCNC(=O)C3CCCC3)c(=O)[nH]c2c1 do in these assays?
HPGD inh: -28%

Results for CN(C)CC/C=C1\c2ccccc2CSc2ccccc21 ?
HPGD inh: -9%

How did Cc1cccc(/C=N/NC(=O)c2cc(-c3cccnc3)nc3c2c(C)nn3-c2ccccc2)c1 do in these assays?
HPGD inh: inconclusive

Results for COc1cccc(C(=O)N/N=C/c2ccc(Oc3ccc([N+](=O)[O-])cn3)c(OC)c2)c1 ?
HPGD inh: -10%

Results for CCOC(=O)c1c(N)sc(N)c1C(=O)OCC ?
HPGD inh: 8.9µM*

Results for Cc1nn(-c2ccccc2)c(Cl)c1C(=O)Nc1nnc(C2CCCC2)s1 ?
HPGD inh: -19%

Results for COCc1c(C(=O)OCC(=O)c2c(N)n(CC(C)C)c(=O)n(C)c2=O)oc2ccccc12 ?
HPGD inh: -8%

How did COc1ccc(NS(=O)(=O)c2ccc(N3CCOCC3)c(NC(=O)c3ccc(F)cc3)c2)cc1 do in these assays?
HPGD inh: -7%

Results for Brc1ccccc1/C=N/Nc1ccc2ccccc2n1 ?
HPGD inh: -18%

Results for O=S(=O)(c1ccccc1)c1nc(-c2ccccc2Cl)oc1NCCN1CCOCC1 ?
HPGD inh: inconclusive

What do the screens show for `Cc1nc2cc(NC(=O)Nc3nccs3)ccc2n1C`?
HPGD inh: -13%

How did COc1ccc(N2CCN(S(=O)(=O)c3ccc(C(=O)NCc4ccco4)cc3)CC2)cc1 do in these assays?
HPGD inh: -5%

What do the screens show for `CCC(C)NC(=O)CN(c1ccc(OC)cc1)S(=O)(=O)c1ccc(NC(C)=O)cc1` (stereo unspecified)?
HPGD inh: -9%

What do the screens show for `CCc1nnc(NC(=O)c2cccc(OC)c2)s1`?
HPGD inh: -17%

How did Cn1c(CNC(=O)c2ccco2)nnc1SCC(=O)Nc1ccc(Br)cc1F do in these assays?
HPGD inh: -5%

How did CCCCOP(=O)(c1ccc(N(C)C)cc1)C(O)c1ccncc1 (stereo unspecified) do in these assays?
HPGD inh: -22%

How did N#CC1=C(N)Oc2n[nH]c(-c3ccncc3)c2C1c1ccsc1 (stereo unspecified) do in these assays?
HPGD inh: 22µM*

Results for COc1ccc(CN2CCN(C(=O)CC(C)C)CC2)cc1OC ?
HPGD inh: -3%

Results for Cc1cc(Nc2nc3ccccc3nc2Cl)n(-c2ccc([N+](=O)[O-])cc2)n1 ?
HPGD inh: -6%

Results for COc1cc2c(cc1OC)C(C(=O)NCc1ccco1)C1c3ccccc3CCN1C2=O (stereo unspecified) ?
HPGD inh: -2%

Results for CC(=O)c1c(C(C)=O)c(C)n(Cc2ccccc2)c1C ?
HPGD inh: -6%

Compounds above containing a cyano group, in the order listed:
What do the screens show for `CC1=C(C#N)C(c2cccnc2)C2=C(CC(C)(C)CC2=O)N1` (stereo unspecified)?
HPGD inh: inconclusive

How did N#CC1=C(N)Oc2n[nH]c(-c3ccncc3)c2C1c1ccsc1 (stereo unspecified) do in these assays?
HPGD inh: 22µM*

More compounds
Results for CCN(CC)CCCNS(=O)(=O)c1ccc(OC)cc1 ?
HPGD inh: -2%

What do the screens show for `COc1cc(C2C(C#N)=C(N)Oc3cc(C)n(CCc4ccccc4)c(=O)c32)cc2c1OCO2` (stereo unspecified)?
HPGD inh: -18%

Results for CCCCSc1nnc(-c2ccc(NC(=O)CCc3ccccc3)cc2)n1C ?
HPGD inh: -15%

How did CNC(=S)N1N=C(c2ccccc2)CC1c1ccc(OC)c(OC)c1 (stereo unspecified) do in these assays?
HPGD inh: -11%

What do the screens show for `CC(=O)NC1(C(F)(F)F)C(=O)N(Cc2ccccc2)C2=C1C(=O)CC(C)(C)C2` (stereo unspecified)?
HPGD inh: -7%

How did O=c1c(Cl)c(N/N=C/c2ccc(Br)cc2)cnn1-c1ccccc1 do in these assays?
HPGD inh: inconclusive

What do the screens show for `Cn1c(=O)n(C)c2cc(/C=C3/SC(=O)N(CC(=O)N4CCOCC4)C3=O)ccc21`?
HPGD inh: -25%

What do the screens show for `COC(=O)[C@@H]1C[C@H]1[C@@H](NC(=O)c1cnccn1)c1ccccc1`?
HPGD inh: -4%

What do the screens show for `CCOC(=O)CCNc1n[nH]c(=O)[nH]c1=O`?
HPGD inh: -1%

How did Cc1cc(C)nc(/N=c2/ssnc2Cl)c1 do in these assays?
HPGD inh: 13µM*

Overlap with the part before: five entries, then new ones.
How did O=c1c(Cl)c(N/N=C/c2ccc(Br)cc2)cnn1-c1ccccc1 do in these assays?
HPGD inh: inconclusive

What do the screens show for `Cn1c(=O)n(C)c2cc(/C=C3/SC(=O)N(CC(=O)N4CCOCC4)C3=O)ccc21`?
HPGD inh: -25%

What do the screens show for `COC(=O)[C@@H]1C[C@H]1[C@@H](NC(=O)c1cnccn1)c1ccccc1`?
HPGD inh: -4%

What do the screens show for `CCOC(=O)CCNc1n[nH]c(=O)[nH]c1=O`?
HPGD inh: -1%

How did Cc1cc(C)nc(/N=c2/ssnc2Cl)c1 do in these assays?
HPGD inh: 13µM*

How did Cc1ccc(NC2=NCCCCC2)cc1 do in these assays?
HPGD inh: -4%

Results for Cc1cc(/C=C(\C#N)c2nc3ccccc3[nH]2)c(C)n1C ?
HPGD inh: -4%

Results for CC1(C)CC(=O)C2=C(C1)N(Cc1ccco1)C(=O)C2(NC(=O)c1ccc(Cl)cc1Cl)C(F)(F)F (stereo unspecified) ?
HPGD inh: -9%

What do the screens show for `Cc1ccc(CNC(=O)C2CC(c3cccc([N+](=O)[O-])c3)=NO2)cc1` (stereo unspecified)?
HPGD inh: -13%

What do the screens show for `CCCc1nnc(NC(=O)CCCN2C(=O)c3ccccc3C2=O)s1`?
HPGD inh: -3%

Results for COc1ccc(S(=O)(=O)Nc2ccc(S(=O)(=O)N3CCCCC3)cc2)cc1OC ?
HPGD inh: -11%

How did COc1cc2c(cc1NC(=O)c1ccc(C(C)(C)C)cc1)CCCC2 do in these assays?
HPGD inh: inconclusive

Results for CCC(=O)N1CCC(c2ccc(OC)cc2)=N1 ?
HPGD inh: inconclusive

Results for COC(=O)N1CC=CC1(C)C(=O)NCC1CC1 (stereo unspecified) ?
HPGD inh: -10%

What do the screens show for `CCOc1ccc(C(=O)Nc2c3c(nn2C(C)(C)C)CSC3)cc1OCC`?
HPGD inh: -3%

Results for CC(=O)Nc1ccc(NC(=O)c2cc(C)nn2-c2ccccc2)cc1 ?
HPGD inh: -10%

Results for Cc1ccc(C(=O)Nc2ccon2)cc1S(=O)(=O)N1CCCCCC1 ?
HPGD inh: inconclusive

What do the screens show for `CCCc1nc2sc(C(=O)OCC)c(N)c2c2c1COC(C)(C)C2`?
HPGD inh: inconclusive

What do the screens show for `COc1ccccc1CC(=O)O/N=C(\N)c1cccc([N+](=O)[O-])c1`?
HPGD inh: 2%

Results for CCC1CCCCN1S(=O)(=O)c1ccc(NC(=O)c2cccs2)cc1 (stereo unspecified) ?
HPGD inh: -12%

How did CCC1CCCCN1CCCn1c(=S)[nH]c2ccccc2c1=O (stereo unspecified) do in these assays?
HPGD inh: -10%

High-throughput results deposited in PubChem by National Center for Advancing Translational Sciences (NCATS).
